miR-21 reporter: miR-21 reporter, rising signal; Potency, µM (top dose mostly 38.3 µM), inactives show at the top dose reporter change, positive = more light; HeLa miR-21 FLuc reporter, luciferase, 48 h; 340,000 tested, under 10 active; active = well fitted rising curve with a large enough effect; inconclusive = small, poorly fitted or top-dose-only effect; inactive = no such curve, though single readings can be large or run the other way;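 also: % of control where 0% means no effect; miR-21 action dims this reporter so a rising signal means less miR-21 action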
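HeLa cells stably expressing CMV-driven firefly luciferase with a downstream miR-21 binding sequence, endogenously expressing miR-21, were treated with titrations (up to about 40uM final) for 48 hours at 37 degree Celsius. Luciferase luminescence was read after lysis.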
Rango-impB inh: prevents formation of the Rango-importin beta complex | Q14974 | Rango CFP/YFP FRET sensor + importin beta, 45 min | Potency, µM (doses to about 92.2 µM), for the others: top-dose inhibition of complex formation | 340,000 compounds, 0.031% hits; active = rising FRET ratio curve, often small or poorly fitted; inconclusive = mostly compound fluorescence or quenching in the first reads; inactive = flat curves in all reads;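 also: potency is read from the fitted curve at half-maximal effect; 0% = DMSO wells and 100% = buffer wells lacking importin beta; nearly all actives have a fitted effect of over 15% in size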
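Inhibition scored from the CFP 486 nm/YFP 530 nm FRET ratio 45 min after adding 0.125 microM importin beta to 50 nM Rango biosensor preincubated 5 min with compound (room temperature, PBS with DTT, Tween-20, BSA). No-importin wells as positive control.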
GLA inh pH 4.5: alpha-galactosidase A (human) inhibition, pH 4.5; 230,000 tested, under 10 active; AID 1467; P06280; activity change, negative = inhibition, % at 105 µM; purified enzyme, 4-MU-alpha-Gal fluorescence, pH 4.5; inconclusive = small, poorly fitted or top-dose-only inhibition, or a rising curve; inactive = flat fitted curve, though single readings scatter; no compound was filed as active;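 also: 0% = full activity with enzyme and -100% = basal without enzyme; dose as in the result columns while the protocol names 77 µM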
Target sequence (P06280 whole entry, looked up): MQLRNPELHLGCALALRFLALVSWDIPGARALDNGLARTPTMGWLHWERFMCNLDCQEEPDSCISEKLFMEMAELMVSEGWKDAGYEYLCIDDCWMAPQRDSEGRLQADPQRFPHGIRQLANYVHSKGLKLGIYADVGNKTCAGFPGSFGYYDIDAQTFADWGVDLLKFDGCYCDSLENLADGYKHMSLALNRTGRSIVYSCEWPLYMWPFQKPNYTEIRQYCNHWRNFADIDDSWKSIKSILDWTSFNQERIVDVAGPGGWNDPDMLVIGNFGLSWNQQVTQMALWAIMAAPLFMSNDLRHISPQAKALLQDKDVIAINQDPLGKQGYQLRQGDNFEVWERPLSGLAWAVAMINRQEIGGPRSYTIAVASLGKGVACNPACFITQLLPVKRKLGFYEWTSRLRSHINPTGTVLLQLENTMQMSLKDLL
Rango release inh: inhibitors of RanGTP-induced Rango-importin beta complex dissociation; Biochemical FRET Rango-importin beta, RanGTP-induced dissociation; Potency, µM (highest dose often 46.1 µM), for inactives: at the top dose activity change, negative = inhibition; AID 540253; 340,000 compounds, 0.071% hits; active means falling FRET ratio curve, often poorly fitted, with flat reads before Ran was added; inconclusive means other falling curves, or compound fluorescence or quenching; inactive means flat or rising ratio curve;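 also: potency is read from the fitted curve at half-maximal effect; % of control where 0% means no effect; nearly all actives have a fitted effect of over 45% in size; -100% = wells without RanGTP and RCC1; the record marks most hits as doubtful in a second field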
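Quantitative HTS using a FRET biosensor: 0.1 uM Rango, 0.25 uM importin beta, 0.6 uM Ran, 2 mM GTP, 0.2 uM RCC1 final, PBS with DTT, Tween-20 and BSA. Post-read taken 45 min after Ran addition.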
Active calls of the source: *; ? = inconclusive; . = not tested or not shown; & = joins results of further samples.

cpd	miR-21 reporter	Rango-impB inh	GLA inh pH 4.5	Rango release inh	compound
1	16%	-0.9%	-6	-2%	O=c1c(Sc2ccccc2)c(C(F)(F)F)[nH]n1-c1ccccc1
2	1%	0.2%	.	3%	COc1cccc(CNC(=O)c2ccc(COc3ccccc3)cc2)c1
3	3%	?	-2	19%	N#CCCN(C(=O)COC(=O)c1ccc2c(=O)n3c(nc2c1)CCC3)c1ccc(F)cc1
4	-5%	2.7%	1	-10%	N#CC1=C(SCc2ccccc2)NC(=O)CC1c1ccco1 (stereo not given)
5	-6%	-5.4%	5	2%	Cc1cccc(NC(=O)[C@H](Cc2ccccc2)NC(=O)OCc2ccccc2)c1
6	.	-2.3%	.	0%	O=C(CN1C(=O)NC(c2ccc(F)cc2)C1=O)NC1CCCCC1 (stereo not given)
7	-1%	-0.3%	.	7%	CC(=O)c1ccc(N(CC(=O)NC2CCCC2)C(=O)CNC(=O)c2cccs2)cc1
8	-1%	2.2%	.	12%	CCCCSc1oc(-c2ccco2)nc1S(=O)(=O)c1ccccc1
9	.	-4.5%	.	-3%	COc1cccc(N2CCN(C(=O)c3cc(-c4ccccc4)nc4c3cnn4C(C)C)CC2)c1
10	-7%	3.1%	-17	-5%	Cc1ccc(CNC(=O)C2CC(c3ccccc3[N+](=O)[O-])=NO2)o1 (stereo not given)
11	.	0.3%	.	-4%	COc1ccc([C@H]2CC(=O)C=C(c3cc(Br)ccc3OC)C2)cc1
12	.	-5.2%	.	13%	Cc1ccc(S(=O)(=O)NC(CC(C)C)C(=O)N2CCCCCCC2)cc1 (stereo not given)
13	1%	0.2%	3	3%	CCN(CC)C(=O)N1CCN(C(=O)N2CCOCC2)CC1
14	-12%	4.8%	-9	1%	Cc1ccc(CNC(=O)CCC2CCCN(C(=O)c3ccc4c(c3)OCO4)C2)o1 (stereo not given)
15	.	?	.	-11%	COc1ccccc1N(CC(=O)Nc1ccc(Br)cc1F)S(=O)(=O)c1cccs1
16	.	-4.0%	.	1%	CCCCN(C(=O)C1CCCO1)c1c(N)n(CC(C)C)c(=O)[nH]c1=O (stereo not given)
17	0%	-0.6%	0	?	COc1ccccc1N1C(=O)N(C(C)=O)C2C1Nc1ccccc1N2C (stereo not given)
18	-3%	-1.5%	6	3%	O=S(=O)(O)c1nc2ccccc2n1Cc1ccc(Cl)cc1
19	-13%	0.1%	.	12%	Cc1ccc(CNC(=S)NC2CCCCC2)cc1
20	-8%	0.7%	.	0%	CSc1ccccc1OCc1cc(C(=O)N(C)C(C)c2ccccn2)no1 (stereo not given)

Reprinted, compounds 1 to 4
cpd	miR-21 reporter	Rango-impB inh	GLA inh pH 4.5	Rango release inh	compound
1	16%	-0.9%	-6	-2%	O=c1c(Sc2ccccc2)c(C(F)(F)F)[nH]n1-c1ccccc1
2	1%	0.2%	.	3%	COc1cccc(CNC(=O)c2ccc(COc3ccccc3)cc2)c1
3	3%	?	-2	19%	N#CCCN(C(=O)COC(=O)c1ccc2c(=O)n3c(nc2c1)CCC3)c1ccc(F)cc1
4	-5%	2.7%	1	-10%	N#CC1=C(SCc2ccccc2)NC(=O)CC1c1ccco1 (stereo not given)

In a second layout: results already given
#	Structure	miR-21 reporter	Rango-impB inh	GLA inh pH 4.5	Rango release inh
18	O=S(=O)(O)c1nc2ccccc2n1Cc1ccc(Cl)cc1	-3%	-1.5%	6	3%
14	Cc1ccc(CNC(=O)CCC2CCCN(C(=O)c3ccc4c(c3)OCO4)C2)o1 (stereo not given)	-12%	4.8%	-9	1%
12	Cc1ccc(S(=O)(=O)NC(CC(C)C)C(=O)N2CCCCCCC2)cc1 (stereo not given)	.	-5.2%	.	13%
9	COc1cccc(N2CCN(C(=O)c3cc(-c4ccccc4)nc4c3cnn4C(C)C)CC2)c1	.	-4.5%	.	-3%
3	N#CCCN(C(=O)COC(=O)c1ccc2c(=O)n3c(nc2c1)CCC3)c1ccc(F)cc1	3%	?	-2	19%

Next part:
cpd	miR-21 reporter	Rango-impB inh	GLA inh pH 4.5	Rango release inh	compound
21	-16%	5.4%	-2	14%	Fc1cccc(CSc2ccc3nnc(-c4cccnc4)n3n2)c1
22	8%	0.7%	2	-8%	Cc1ccc(C(=O)c2ccccc2C(=O)OCC(=O)NC(=O)NC(C)(C)C)cc1
23	6%	-7.6%	6	-1%	CCOC(=O)C1=C(C)N(C)C(C)=C(C(=O)OCC)C1c1ccsc1
24	-11%	0.0%	1	21%	Cc1cc(OCCn2cnc3ccccc3c2=O)ccc1[N+](=O)[O-]
25	.	-0.4%	.	6%	CC1OC(OC2C(Oc3c(-c4ccc(O)cc4)oc4cc(O)cc(O)c4c3=O)OC(COC3O[C@@H](C)[C@H](O)[C@@H](O)C3O)C(O)C2O)C(O)C(O)C1O (stereo not given in full)
26	0%	2.6%	.	-6%	CC(C)[C@H](NC(=O)c1cc2cc(Cl)ccc2n1C)C(=O)N[C@@H](C(=O)O)c1ccccc1
27	1%	-3.5%	-2	0%	COC(=O)c1ccc(NC(=O)Cn2nc(-c3ccncc3)nc2SCC(=O)Nc2nccs2)cc1
28	-5%	-1.6%	-13	-1%	Fc1ccc(CNc2nc(-c3ccco3)cc(C(F)(F)F)n2)cc1
29	-17%	-1.5%	-11	0%	CCOC(=O)c1ccc(N2C(=O)C(O)=C(C(C)=O)C2c2ccccc2)cc1 (stereo not given)
30	.	0.2%	.	-10%	CC(=O)c1ccc(N2CCN(C(=O)c3ccc(C(=O)c4ccccc4)cc3)CC2)cc1
31	-5%	-3.4%	5	1%	CCOC(=O)C1CCN(c2ccc([N+](=O)[O-])cc2)CC1
32	-8%	0.5%	-3	-10%	COCCn1cnc2cc(C)c(C)cc21
33	?	-1.4%	2	0%	Cc1ccc(-c2nnc(NCc3nc4ccccc4[nH]3)c3ccccc23)cc1S(=O)(=O)N1CCOCC1
34	0%	-0.7%	6	-9%	O=C(N[C@@H](Cc1ccccc1)C(=O)O)c1c(F)c(F)c(F)c(F)c1F
35	3%	-0.6%	.	4%	COC(=O)c1cc(OC)c(OC)cc1NC(=S)N1CCOCC1
36	-7%	-1.6%	-18	?	COc1cccc(N2CCN(Cc3nc4ccccc4c(=O)[nH]3)CC2)c1
37	-68%&-64%	3.7%	.	6%	COc1ccc(CN(C(=O)c2cc3ccccc3oc2=O)C2CCS(=O)(=O)C2)cc1OC (stereo not given)
38	-48%	-0.4%	2	1%	O=[N+]([O-])c1ccccc1N/N=C/c1cc2ccccc2nc1Cl
39	-2%	?	1	-12%	CC(=O)c1ccc2noc(-c3ccccc3)c2c1
40	.	-2.6%	.	-12%	C[C@H](CO)N1C[C@H](C)[C@@H](CN(C)S(=O)(=O)c2cn(C)cn2)Oc2c(NS(=O)(=O)c3ccccc3)cccc2C1=O
41	?	-1.1%	.	-14%	Cc1ccc2occ(/C=N/NC(=O)c3ccccc3O)c(=O)c2c1
42	-17%	-0.1%	-6	1%	CCOC(=O)c1sc(=NC(=O)C2CC2)n(C)c1C
43	10%	3.0%	.	7%	O=C(CN(C(=O)c1csnn1)c1cccc(F)c1)NCc1ccc2c(c1)OCO2
44	5%	0.2%	-1	1%	COCCn1c(=S)[nH]c2cc(C(=O)NCCCN3CCOCC3)ccc2c1=O
45	-2%	1.0%	.	16%	O=C1CCN(Cc2ccc([N+](=O)[O-])cc2)CCN1CCO
46	.	-1.7%	.	0%	C=CCNC(=O)c1ccc2c(c1)S(=O)(=O)c1ccccc1C2=O
47	-5%	-1.9%	4	4%	C=CCN=C(CC)C1=C(O)CCCC1=O
48	-2%	1.8%	1	-6%	CCc1ccccc1NC(=O)N[C@H](C(=O)O)C(C)CC (stereo not given in full)
49	22%	-0.1%	3	11%	O=C(/C=C/c1ccc(S(=O)(=O)N2CCOCC2)cc1)NC(=S)NCCCn1ccnc1
50	-12%	-0.5%	5	-6%	CCOC(=O)N1CCC(Nc2c(Nc3ccc(C)c(C)c3)c(=O)c2=O)CC1
51	.	?	.	?	NC(=O)CSc1ccc(S(=O)(=O)N2CCCCC2)cn1
52	0%	0.5%	2	1%	COc1cc(/C=C2/C(=O)N=C(N)N2C)cc(OC)c1OC
53	-12%	?	-1	0%	O=c1ccccn1Cc1c(F)cccc1Cl
54	-32%	0.2%	-2	1%	O=C(NC(=S)NCCc1ccccc1)C1CCCCC1
55	-15%	2.6%	1	26%	Cc1ccnc(N2C(=O)CSC2c2ccc(Cl)cc2)c1 (stereo not given)
56	-2%	-4.4%	6	-1%	Cc1ccc(F)c(NC=C2C(=O)OC(C)(C)OC2=O)c1
57	-3%	-3.6%	.	-16%	CCOc1cc(C(C(=O)NCC2CCCO2)N(C(=O)Cn2nnc3ccccc32)c2ccccc2OC)ccc1O (stereo not given)
58	-7%	-1.2%	-19	-7%	COC(=O)CCNS(=O)(=O)c1ccc2ccccc2c1
59	0%	4.7%	.	6%	COc1ccc2[nH]cc(CCNC(=O)C3CC(=O)N(c4ccc(Cl)cc4)C3)c2c1 (stereo not given)
60	-1%	-0.4%	.	-2%	CCC(C)NC(=O)C1CCC(=O)N1CCc1ccccc1 (stereo not given)
61	-7%	-2.9%	.	-7%	CC(=O)Nc1ccc(S(=O)(=O)NNc2cccc(C)c2)cc1
62	-7%	3.4%	.	-8%	COc1cc(CN2CCCCCC2)cc(Br)c1O
63	.	-0.9%	.	12%	CC[C@]12c3[nH]c4ccc(OC)cc4c3CCN1C(=O)C(CC(=O)NCCCN(C)C)C[C@@H]2C(=O)N1CCN(C(=O)C2CC2)CC1 (stereo not given in full)
64	-30%	2.2%	1	1%	O=C(N/N=C/c1ccc[nH]1)c1ccc([N+](=O)[O-])cc1
65	.	2.3%	.	4%	Cc1cc(Br)cc(Cl)c1OCC(=O)N1CCN(C(=O)c2ccco2)CC1
66	-1%	-0.3%	2	15%	CC(=O)c1ccc(NC(=O)c2c(C)nn(-c3ccccc3)c2Cl)cc1
67	-2%	7.0%	.	7%	COc1ccc(S(=O)(=O)N(C)CC(=O)N2CCN(C)CC2)cc1Cl
68	20%	8.3%	-9	-5%	COC(=O)c1ccccc1NC(=O)C1CCCN(S(=O)(=O)c2ccc(OC)cc2)C1 (stereo not given)
69	-2%	-9.7%	1	-8%	O=C(CCN1CCN(c2ccccc2)CC1)N/N=C/c1ccc(O)c(O)c1O
70	1%	-2.7%	.	0%	CCN(CC)C(=O)CN1CCN(Cc2ccc3c(c2)OCO3)CC1
71	-1%	-0.9%	11	7%	O=C1C=C(O)C(n2cncn2)C(c2ccc(F)cc2)C1 (stereo not given)
72	-1%	0.1%	-2	-17%	COc1ccc(N2C(=O)/C(=C\c3ccco3)N=C2SCC(=O)NC(C)(C)C)cc1Cl
73	.	4.6%	.	26%	CCOC(=O)c1cc(-c2ccc(F)cc2)n(CC(=O)Nc2nccs2)c1C
74	-27%	-3.1%	-6	1%	O=C(NC(=S)Nc1ccccc1)c1csnn1
75	-85%	0.6%	5	-3%	O=C(c1ccc2c3n(nc2c1)-c1ccc(Cl)cc1CO3)N1CCOCC1
76	6%	-0.5%	-6	7%	COc1cccc(/C=N/NC(=O)c2ccccc2NC(=O)c2ccco2)c1OC
77	.	-0.8%	.	12%	OC1COCOC1C(O)C1OCOCC1O (stereo not given)
78	3%	2.0%	0	0%	CC1(C)CC(=O)C(C=NCCN2CCN(C3CC(=O)N(c4ccc(Br)cc4)C3=O)CC2)=C(O)C1 (stereo not given)
79	.	0.7%	.	2%	CCCCN(C(=O)c1ccc(-n2nc(C)cc2C)cc1)c1c(N)n(CCC)c(=O)[nH]c1=O
80	.	-5.1%	.	-2%	O=C(COC(=O)CNS(=O)(=O)c1cc(C(F)(F)F)ccc1Cl)NC1CC1

The listing continues.
cpd	miR-21 reporter	Rango-impB inh	GLA inh pH 4.5	Rango release inh	compound
81	-38%	-0.2%	1	-14%	O=C(Nc1ccccc1)/C(=C\c1ccccc1)NC(=O)c1ccco1
82	-1%	5.5%	.	-6%	N=C1/C(=C\c2ccc(OC(=O)c3ccc(F)cc3)cc2)C(=O)N=C2SC(N3CCOCC3)=NN12
83	.	5.1%	.	-10%	CCN(CCc1ccccc1)c1ccc2c(c1)C1CC2CCN1C(=O)OCc1ccccc1 (stereo not given)
84	5%	-2.5%	.	-5%	NS(=O)(=O)c1ccc(CCNc2ccnc3cc(Cl)ccc23)cc1

High-throughput results as filed in PubChem.

The list is partial; count on the stated rates, not on these rows.
